NOMO-1 viab – NOMO-1 AML cell viability reduction, primary screen, STK33 inhibitor project, CellTiter-Glo luminescence; NOMO-1 AML viability, 72 h; inhibition, % (no concentration beside the values); actives 7.5% (n = 37,000); AID 2330, 2010;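 active = most replicates above 80%; inconclusive = exactly half above 80%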;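 also: wells of about 30 µL received 25 nL stock; 0% = median of vehicle wells and 100% = reference inhibitor level; the first replicate is given; inactives centre near 10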
An asterisk follows results filed as active; ? = inconclusive. Some of the compounds tested (hit frequency here may not be typical).

SMILES	NOMO-1 viab
COc1ccc(CN(C)C[C@H]2Oc3ccc(NC(=O)c4ccncc4)cc3C(=O)N([C@@H](C)CO)C[C@@H]2C)cc1	16.6
CC(=O)c1cccc(-n2nnnc2SCC(=O)Nc2ccccc2F)c1	10.3
COc1c(NC(=O)N2CC(C)OC(C)C2)csc1Cl (configuration not stated)	2.0
C[C@H](CO)N1C[C@H](C)[C@H](CN(C)S(=O)(=O)c2ccc(Cl)cc2)Oc2ccc(NC(=O)CCN3CCOCC3)cc2CC1=O	6.0
COc1cc([C@@H](O)[C@@H](CO[C@@H]2O[C@H](CO)[C@@H](O)[C@H](O)[C@H]2O)Oc2ccc(/C=C/CO)cc2OC)ccc1O	5.0
C[C@H](CO)N1C[C@H](C)[C@@H](CN(C)S(=O)(=O)c2ccccc2)Oc2ccc(NS(=O)(=O)c3ccccc3)cc2C1=O	16.8
CC1CC[C@@]2(OC1)O[C@H]1CC3C4CC=C5C[C@@H](O[C@@H]6O[C@H](CO)[C@@H](O[C@@H]7O[C@@H](C)[C@H](O)[C@@H](O)[C@H]7O)[C@H](O)[C@H]6O[C@@H]6O[C@@H](C)[C@H](O)[C@@H](O)[C@H]6O)CC[C@]5(C)C4CC[C@]3(C)[C@@]1(O)[C@@H]2C (some centres not stated)	118.7*
Cc1cc(C)nc(SCC(=O)Nc2ccc(N3CCOCC3)cc2)n1	8.6
O=C(COc1ccc(Br)cc1CO)Nc1ccccc1	-10.3
COc1ccc(NC(=O)Nc2ccc3c(c2)CC(=O)N([C@H](C)CO)C[C@@H](C)[C@H](CN(C)Cc2ccc(C(F)(F)F)cc2)O3)cc1	112.7*
O=C(O)CNC(=O)CSc1ccc(Cl)cc1	24.7
C[C@@H]1CCCCO[C@@H](CN(C)C(=O)Nc2cccc3ccccc23)[C@@H](C)CN([C@H](C)CO)C(=O)c2cc(NS(=O)(=O)c3ccc(F)cc3)ccc2O1	50.1
C[C@H]1CN([C@@H](C)CO)C(=O)c2cccc(NC(=O)Nc3cccc4ccccc34)c2O[C@H]1CN(C)Cc1ccc2c(c1)OCO2	14.4
S=C(Nc1ccccn1)Nc1ccccn1	37.4
COc1ccc2nc(NCc3ccc(OC)c(OC)c3OC)sc2c1	34.8
C[C@H]1CN([C@@H](C)CO)C(=O)Cc2cc(NC(=O)Nc3ccc(F)cc3)ccc2O[C@H]1CN(C)S(=O)(=O)c1ccc(F)cc1	126.3*
COc1ccc(-c2nnc(SCC(=O)NC(C)(C)C)n2-c2ccccc2)cc1	1.4
C[C@@H]1CN([C@H](C)CO)C(=O)Cc2cc(NC(=O)Cc3cn(C)c4ccccc34)ccc2O[C@H]1CN(C)Cc1ccc(C(=O)O)cc1	5.0
CCOC(=O)c1c(N)n(C2CCCCC2)c2nc3ccccc3nc12	?
C[C@H]1CN([C@@H](C)CO)C(=O)c2cccc(NS(C)(=O)=O)c2O[C@@H]1CN(C)Cc1ccc2c(c1)OCO2	15.2
C[C@@H]1CN([C@H](C)CO)C(=O)c2cccc(NC(=O)c3nc4ccccc4s3)c2O[C@@H]1CN(C)S(=O)(=O)c1ccc(F)cc1	18.7
COc1ccc(OC(C)c2nc(-c3ccccn3)no2)cc1 (configuration not stated)	31.8
C[C@@H]1CN([C@@H](C)CO)C(=O)Cc2cc(NS(=O)(=O)c3ccccc3)ccc2O[C@@H]1CN(C)Cc1ccccc1	15.4
C[C@@H]1CN([C@H](C)CO)C(=O)c2cc(NC(=O)Cc3cn(C)c4ccccc34)ccc2O[C@@H]1CN(C)Cc1ccc(C(=O)Nc2ccccc2N)cc1	64.1
C[C@@H]1CN([C@H](C)CO)C(=O)c2cccc(NS(=O)(=O)c3ccc(F)cc3)c2O[C@@H]1CN(C)C(=O)Nc1cccc2ccccc12	21.2

Among those listed so far, 2 contain a COOH group.
SMILES	NOMO-1 viab
O=C(O)CNC(=O)CSc1ccc(Cl)cc1	24.7
C[C@@H]1CN([C@H](C)CO)C(=O)Cc2cc(NC(=O)Cc3cn(C)c4ccccc34)ccc2O[C@H]1CN(C)Cc1ccc(C(=O)O)cc1	5.0

An excerpt of these results, field by field:
CCOC(=O)c1c(N)n(C2CCCCC2)c2nc3ccccc3nc12
  NOMO-1 viab = ?
O=C(O)CNC(=O)CSc1ccc(Cl)cc1
  NOMO-1 viab = 24.7

Back to the main list, repeating the four entries before the break.
SMILES	NOMO-1 viab
COc1ccc(OC(C)c2nc(-c3ccccn3)no2)cc1 (configuration not stated)	31.8
C[C@@H]1CN([C@@H](C)CO)C(=O)Cc2cc(NS(=O)(=O)c3ccccc3)ccc2O[C@@H]1CN(C)Cc1ccccc1	15.4
C[C@@H]1CN([C@H](C)CO)C(=O)c2cc(NC(=O)Cc3cn(C)c4ccccc34)ccc2O[C@@H]1CN(C)Cc1ccc(C(=O)Nc2ccccc2N)cc1	64.1
C[C@@H]1CN([C@H](C)CO)C(=O)c2cccc(NS(=O)(=O)c3ccc(F)cc3)c2O[C@@H]1CN(C)C(=O)Nc1cccc2ccccc12	21.2
CCOc1ccc(C(C)=O)cc1CSc1nc(C)cc(C)n1	-10.8
CCOc1cccc(-c2nnc(SCC(=O)Nc3cccc(Cl)c3C)n2C)c1	24.7
O=C(Cn1cc(C(=O)c2cccs2)c2ccccc21)Nc1ccccc1	28.3
Cc1ccc(S(=O)(=O)N(C)C[C@H]2Oc3ccc(NC(=O)NC(C)C)cc3C(=O)N([C@H](C)CO)C[C@H]2C)cc1	9.5
Cc1nn(Cc2cccc(Oc3ccccc3)c2)c(C)c1NC(=O)NC12CC3CC(CC(C3)C1)C2	20.1
CC(NS(=O)(=O)c1ccc(Cl)cc1)C(=O)Nc1cc(Cl)ccc1Oc1ccccc1 (configuration not stated)	36.6
CC1OC(OC(=O)C2=CC3CC(C)(C)CC34C(C)OC(=O)CC24)C(O)C(O)C1O (configuration not stated)	-1.3
COc1ccc(-n2c(SCC(=O)Nc3ccc(Cl)cc3Cl)nnc2-c2ccccc2)cc1	16.0
O=C(NCc1nc(-c2ccccc2)no1)c1ccc(Br)o1	11.0
O=C(O)c1nn(-c2ccccc2)c2c1CCc1occc1-2	6.6
COc1ccc(NC(=O)N(C)C[C@@H]2Oc3ccc(NC(=O)Cc4ccccc4)cc3CC(=O)N([C@H](C)CO)C[C@H]2C)cc1	10.9
C[C@H]1CN([C@@H](C)CO)C(=O)c2cc(NC(=O)C3CCCCC3)ccc2O[C@@H]1CN(C)Cc1ccccc1	-2.0
C[C@@H]1CN([C@H](C)CO)C(=O)c2cccc(NC(=O)c3cnccn3)c2O[C@H]1CN(C)S(=O)(=O)c1ccc(F)cc1	0.2
CCN(CC)CC(=O)Nc1sc2c(c1C(=O)Nc1ccccc1)CCC2	10.0
CCn1c(SCC(=O)Nc2ccc3c(c2)OCCO3)nc2sc(C)c(C)c2c1=O	4.8
C[C@H]1CN([C@@H](C)CO)C(=O)Cc2cc(NS(=O)(=O)c3ccc(F)cc3)ccc2O[C@H]1CN(C)S(C)(=O)=O	5.4
COc1cccc(OCC(=O)Nc2ccc(Cl)cc2C(=O)O)c1	-19.9
NC(=O)CSc1nnc(Cc2ccccc2)n1-c1ccc(Cl)cc1	-2.3
COc1ccc(CN(C)C[C@H]2Oc3ccc(NC(=O)Nc4ccc5c(c4)OCO5)cc3CC(=O)N([C@@H](C)CO)C[C@H]2C)cc1	19.1
Cc1noc(C)c1S(=O)(=O)Nc1ccc2c(c1)C(=O)N([C@@H](C)CO)C[C@H](C)[C@@H](CN(C)C(=O)NC(C)C)O2	11.0
COc1ccc(C(OC(=O)c2ccccc2)c2nccc3ccccc23)cc1 (configuration not stated)	105.4*
C[C@H]1CN([C@@H](C)CO)C(=O)Cc2cc(NS(=O)(=O)c3cn(C)cn3)ccc2O[C@H]1CN(C)Cc1ccc2c(c1)OCO2	-6.4
COc1ccc(S(=O)(=O)Nc2cccc3c2O[C@H](CN(C)Cc2ccc4c(c2)OCO4)[C@H](C)CN([C@@H](C)CO)C3=O)cc1	12.9
C[C@@H]1CN([C@@H](C)CO)C(=O)c2cccc(NS(=O)(=O)c3ccccc3)c2O[C@@H]1CN(C)S(=O)(=O)c1cccs1	50.5
Cc1ccc2nc(N3CCNCC3)c(-n3nc(C)cc3C)nc2c1	-6.9

(next part)
SMILES	NOMO-1 viab
Cc1cc(C(=O)O)ccc1NC(=O)C1CC=CCC1C(=O)O (configuration not stated)	11.8
C[C@@H]1CN([C@H](C)CO)C(=O)c2cccc(NC(=O)c3ccncc3)c2O[C@@H]1CN(C)S(=O)(=O)c1ccc(Cl)cc1	-0.8
C/C=C1/[C@H](O[C@@H]2O[C@H](CO)[C@@H](O)[C@H](O)[C@H]2O)OC=C(C(=O)OC)[C@H]1CC(=O)OCCc1ccc(OC(=O)C[C@@H]2C(C(=O)OC)=CO[C@@H](O[C@@H]3O[C@H](CO)[C@@H](O)[C@H](O)[C@H]3O)/C2=C/C)cc1	16.7
COC(=O)c1ccccc1NC(=O)C1CC(c2ccccc2O)=NO1 (configuration not stated)	1.7
CC(C)NC(=O)Nc1cccc2c1O[C@H](CN(C)C)[C@H](C)CN([C@H](C)CO)C2=O	16.7
C[C@H](CO)N1C[C@H](C)[C@@H](CN(C)Cc2ccc(C(=O)Nc3ccccc3N)cc2)Oc2ccc(NS(=O)(=O)c3cccs3)cc2C1=O	33.3
COc1cc2c(cc1OC)[C@@H]1C(=O)c3ccc4c(c3O[C@@H]1CO2)C=CC(C)(C)O4	47.4
O=C(CSc1nc2ccccc2c(=O)n1-c1ccccc1)Nc1ccc(Br)cc1Cl	37.7
Cc1noc(C)c1NC(=O)N(C)C[C@H]1Oc2ccc(NS(=O)(=O)c3cccs3)cc2CC(=O)N([C@@H](C)CO)C[C@H]1C	15.1
Cc1noc(C)c1NC(=O)N(C)C[C@H]1Oc2c(NS(=O)(=O)c3ccc(Cl)cc3)cccc2C(=O)N([C@H](C)CO)C[C@@H]1C	5.9
CSC(=O)OCC1=C[C@@H]2OC(=O)C3=CO[C@@H](O[C@@H]4O[C@H](CO)[C@@H](O)[C@H](O)[C@H]4O)[C@H]1[C@@H]32	18.3
C[C@H]1CN([C@@H](C)CO)C(=O)Cc2cc(NS(=O)(=O)c3ccc(Cl)cc3)ccc2O[C@H]1CN(C)S(=O)(=O)c1ccc(Cl)cc1	69.5
O=C(/C=C/c1ccc(O)cc1)c1ccc(O)cc1O	56.9
C[C@H]1CN([C@@H](C)CO)C(=O)Cc2cc(NS(=O)(=O)c3ccc(Cl)cc3)ccc2O[C@H]1CN(C)Cc1ccc(-c2ccccc2)cc1	110.6*
N#Cc1c(NC(=O)c2cc(S(=O)(=O)N3CCOCC3)cs2)sc2c1CCCC2	2.7
Cc1cc(C(=O)Nc2cccc3c2O[C@@H](CN(C)S(=O)(=O)c2ccccc2)[C@@H](C)CN([C@H](C)CO)C3=O)n(C)n1	17.3
COc1cccc(C(=O)COc2cccc(NC(=O)c3cccc([N+](=O)[O-])c3)c2)c1	?
Cc1ccc(OCC(=O)Nc2ccc3oc(-c4ccccc4C)nc3c2)cc1C	-0.1
C1=C(N2CCOCC2)Cc2ccccc21	33.8
C[C@H]1CN([C@@H](C)CO)C(=O)c2cc(NC(=O)CCN3CCOCC3)ccc2O[C@H]1CN(C)Cc1ccc(-c2ccccc2)cc1	-3.6
NCCOc1ccc(Cl)cc1	111.0*
C[C@H]1CN([C@@H](C)CO)C(=O)c2cccc(NS(=O)(=O)c3ccc(F)cc3)c2O[C@@H]1CN(C)Cc1ccc(C(F)(F)F)cc1	12.2
C[C@@H]1CN([C@H](C)CO)C(=O)c2cc(NC(=O)Nc3ccc4c(c3)OCO4)ccc2O[C@@H]1CN(C)C(=O)Nc1cccc2ccccc12	48.8
COc1cc(C2OCC3C(c4ccc(OC5OC(CO)C(O)C(O)C5O)c(OC)c4)OCC23)ccc1O (configuration not stated)	4.8
O=C1CSC(=S)N1CCc1ccc(Cl)cc1	113.0*

The results go on:
SMILES	NOMO-1 viab
C[C@@H]1CCCCO[C@@H](CN(C)S(=O)(=O)c2cn(C)cn2)[C@@H](C)CN([C@H](C)CO)C(=O)c2cc(NC(=O)CCCN(C)C)ccc2O1	14.6
Cc1ccc(S(=O)(=O)N(C)C[C@H]2OCCCC[C@@H](C)Oc3ccc(NC(=O)CCCN(C)C)cc3C(=O)N([C@H](C)CO)C[C@@H]2C)cc1	27.7
C[C@@H]1CN([C@H](C)CO)C(=O)Cc2cc(NC(=O)C3CCCCC3)ccc2O[C@H]1CN(C)CC1CC1	5.5
COc1ccc(NC(=O)NCCN2CCN(c3cc(OC)ccc3OC)CC2)cc1	21.1
C[C@H](CO)N1C[C@H](C)[C@H](CN(C)Cc2ccc(Cl)c(Cl)c2)Oc2c(NC(=O)c3ccc(-c4nccs4)cc3)cccc2C1=O	108.1*
Nc1ncnc2c1ncn2C1CCC(CO)O1 (configuration not stated)	-11.9
CCOC(=O)c1cc(C)nc(Sc2ccccc2NC(=O)c2cccc(C(F)(F)F)c2)c1C#N	114.2*
Cc1cc(=O)oc2cc(OC(C)C(=O)Nc3ccccc3[N+](=O)[O-])ccc12 (configuration not stated)	12.1
C[C@H](CO)N1C[C@H](C)[C@H](CN(C)Cc2ccc(Oc3ccccc3)cc2)Oc2ccc(NS(=O)(=O)c3cn(C)cn3)cc2C1=O	25.0
CC(C)NC(=O)Nc1ccc2c(c1)CC(=O)N([C@H](C)CO)C[C@@H](C)[C@H](CN(C)Cc1ccc(Cl)c(Cl)c1)O2	18.7
O=C(O)Cn1cc(C(=O)C2CCCCC2)c2ccccc21	-10.9
COc1ccc(CCNC(=S)n2cc(C)cn2)cc1OC	110.6*
COc1ccc(CN(C)C[C@H]2Oc3ccc(NS(=O)(=O)c4ccc(Cl)cc4)cc3C(=O)N([C@@H](C)CO)C[C@H]2C)cc1	39.6
Cc1noc(C)c1NC(=O)N(C)C[C@H]1Oc2c(NC(=O)C3CCOCC3)cccc2C(=O)N([C@H](C)CO)C[C@@H]1C	-9.5
CN(Cc1nc(-c2ccncc2)no1)S(=O)(=O)c1ccc(Br)cc1	15.3
COc1cccc(NC(=O)CSc2nnnn2C)c1	28.3

Screening data deposited in PubChem by Broad Institute.
